Compound activity: PubChem BioAssay, National Center for Advancing Translational Sciences (NCATS)
TRPML1 ag – qHTS for Agonists of the Human Mucolipin Transient Receptor Potential 1 (TRPML1); Mucolipin-1 (Homo sapiens), Q9GZU1; TRPML1-expressing cells, Ca2+ dye fluorescence, FDSS; host cell line not named in the record; reference of the full effect not given here; activation, % (concentration not given with the values); actives 0.12% (n = 410,000); in the data active = activation above about 50%; inconclusive = about 30% to 50%; inactive = below about 30%; note: 0% is about no effect; the text of the record puts the active cut at 80%
Target sequence (Q9GZU1 whole entry, looked up): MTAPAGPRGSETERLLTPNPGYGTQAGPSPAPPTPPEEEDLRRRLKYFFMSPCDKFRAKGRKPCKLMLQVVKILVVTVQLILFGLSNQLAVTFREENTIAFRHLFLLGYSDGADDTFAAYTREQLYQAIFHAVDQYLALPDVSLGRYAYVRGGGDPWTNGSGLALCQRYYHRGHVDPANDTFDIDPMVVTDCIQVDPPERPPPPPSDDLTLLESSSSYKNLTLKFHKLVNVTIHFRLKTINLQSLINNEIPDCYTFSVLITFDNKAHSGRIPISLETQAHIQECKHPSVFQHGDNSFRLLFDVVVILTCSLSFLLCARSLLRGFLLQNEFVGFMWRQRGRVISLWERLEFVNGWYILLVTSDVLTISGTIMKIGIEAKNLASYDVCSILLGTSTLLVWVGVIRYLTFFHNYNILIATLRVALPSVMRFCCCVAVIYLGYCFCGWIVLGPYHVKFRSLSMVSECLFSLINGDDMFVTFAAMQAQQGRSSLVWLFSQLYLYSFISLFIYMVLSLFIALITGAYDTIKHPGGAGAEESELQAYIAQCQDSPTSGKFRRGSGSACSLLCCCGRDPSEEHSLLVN
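Agonist activity was taken from a 110 s kinetic Ca2+ dye read on the FDSS after pinning compounds onto TRPML1-DL cells. The cells were seeded at 1,500/well with Tet inducer, incubated about 16 h, then dye-loaded at room temperature.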
CtBP-E1A inh – qHTS Assay for Inhibitors of the CtBP/E1A Interaction; CtBP / adenovirus E1A interaction (AlphaScreen); AlphaScreen GST-E1A/His-CtBP binding, 1536-well; stronger effect = lower value; control for the full effect not named in the record; activity change, % (test concentration not listed); actives 0.49% (n = 340,000); in the data active means activity change below about -65%; inconclusive means about -30% to -65%; inactive means above about -30%; note: % is set by controls: 0 for no effect and ±100 for the full control effect; compound concentration not given in the record
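Steps: dispense buffer (Tris pH 8.0, NaCl 300 mM, TCEP 1 mM, BSA, Tween 20); add 5X protein mix (GST-E1A, His-CtBP, 125 nM each); pin 23 nL compound; 2 h at 37 °C, dark; add 5X beads (50 ug/mL); 1 h; read.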
D2 ag – Beta-Arrestin HTS for Positive Allosteric Modulators of the Human D2 Dopamine Receptor: Agonists. actives 0.084% (n = 360,000). activation, % (concentration not given with the values). D(2) dopamine receptor (Homo sapiens), P14416. DiscoveRx PathHunter D2 beta-arrestin, luminescence, 90 min; 100% = 57 uM dopamine signal; in the data active = activation above about 40%; inconclusive = about 15% to 40%; inactive = below about 15%; note: compound concentration not given in the record; the text of the record calls up to 30% inactive
Target sequence (P14416 whole entry, looked up): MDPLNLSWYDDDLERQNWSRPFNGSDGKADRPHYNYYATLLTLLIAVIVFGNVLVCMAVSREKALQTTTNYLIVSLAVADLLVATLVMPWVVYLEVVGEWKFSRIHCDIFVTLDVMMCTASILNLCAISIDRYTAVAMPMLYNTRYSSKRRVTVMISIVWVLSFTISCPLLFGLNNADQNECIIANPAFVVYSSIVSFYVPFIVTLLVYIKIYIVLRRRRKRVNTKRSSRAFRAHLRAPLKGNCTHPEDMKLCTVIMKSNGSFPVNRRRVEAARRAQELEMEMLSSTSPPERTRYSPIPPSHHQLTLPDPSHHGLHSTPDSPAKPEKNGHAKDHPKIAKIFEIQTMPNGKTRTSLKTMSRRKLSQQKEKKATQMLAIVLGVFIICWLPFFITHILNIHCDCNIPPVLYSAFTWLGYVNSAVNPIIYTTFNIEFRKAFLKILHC
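Agonist mode: compounds alone added to overnight-plated D2 PathHunter cells for 90 min at 37 C, with 57 uM final dopamine (EC100) defining full response. Beta-arrestin recruitment detected by chemiluminescent reagent, read after 1 h at ambient temperature.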
Six1-Eya2 inh – qHTS Assay for Inhibitors of the Six1/Eya2 Interaction. AlphaScreen GST-Six1/His-Eya2 binding, biochemical; stronger effect = lower value; control for the full effect not named in the record. Homeobox protein SIX1 (Homo sapiens) + Protein phosphatase EYA2 (Homo sapiens), …. actives 0.56% (n = 360,000). AID 651725, 2012. activity change, % (test concentration not listed); in the data active = activity change below about -65%; inconclusive = about -30% to -65%; inactive = above about -30%; note: % is set by controls: 0 for no effect and ±100 for the full control effect; compound concentration not given in the record
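GST-Six1 + His-Eya2 (5X stock: 250/500 nM); Tris pH 8.0, 300 mM NaCl, 0.05% BSA, 0.02% Tween 20; GSH donor/Ni acceptor beads; 1 h 37 °C dark; AlphaScreen readout.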
PINK1 expr mod – A Quantitative High throughput Screen to Identify Chemical Modulators of PINK1 Expression; PINK1 immunofluorescence, high-content cytometry, 24 h; actives 0.2% (n = 410,000); Potency, µM (doses to about 76.6 µM), without a hit: top-dose activation (PINK1 increase), usual class: activators; active = well fitted activation curve with a large enough effect; inconclusive = small, poorly fitted or top-dose-only effect; inactive = flat fitted curve, though single readings scatter; cell line not stated here;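 note: potency is the fitted concentration of half-maximal effect; % of control where 0% means no effect; nearly all actives have a fitted effect of over 65% in size; a mitochondrial uncoupler was the plate control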
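Fluorescence from anti-PINK1 antibody, together with nuclear and cell stains, was scanned on a laser-scanning cytometer. Before staining, stable-line cells were incubated 24 hours with compounds at 5 concentrations; primary antibody 12 h at 10 degrees C.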
TRPML1 blocker – qHTS for Inhibitors of the Human Mucolipin Transient Receptor Potential 1 (TRPML1) | Mucolipin-1 (Homo sapiens), Q9GZU1 | TRPML1-inducible cells, Ca2+ dye fluorescence, FDSS; stronger effect = lower value; inhibition of EC80 agonist-evoked calcium signal | activity change, negative = inhibition, % (test concentration not listed) | actives 0.02% (n = 390,000) | AID 624415, 2012; in the data active means activity change below about -50%; inconclusive means about -30% to -50%; inactive means above about -30%;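 note: stimulus is agonist 54-4 at its EC80 concentration; % is set by controls: 0 for no effect and ±100 for the full control effect; compound concentration not given in the record; the text of the record puts the active cut at -80%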
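Calcium fluorescence in TRPML1-DL cells induced overnight with Tet: a 110 s read after compound pin addition, then a 110 s antagonist read after challenge with 54-4 at 4 uM final (EC80).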
* = called active by the depositor; ? = inconclusive; . = no result given; [ ] = dose if it differs, or a comment.

SMILES	TRPML1 ag	CtBP-E1A inh	D2 ag	Six1-Eya2 inh	PINK1 expr mod	TRPML1 blocker
CCOC(=O)c1c(NC(=O)C2c3ccccc3Oc3ccccc32)sc(C(=O)N(CC)CC)c1C	0.1	-1	-8.3	-13	2.6%	-15
COc1ccc(NC(=S)N(Cc2cccnc2)Cc2cc3cc(OC)c(OC)cc3[nH]c2=O)cc1	2.4	.	-2.0	-5	1.7%	3
COc1cccc(NC(=O)N(C)C[C@@H]2OCc3cnnn3CCCC(=O)N([C@H](C)CO)C[C@@H]2C)c1	0.3	4	-8.1	9	-0.3%	-1
CC(=O)c1sc(NC(=O)c2cc3c(C)nn(-c4ccccc4)c3s2)nc1C	3.0	-12	1.1	2	1.3%	-5
C[C@H](NC(=O)[C@@H]1Cc2ccccc2CN1)C(=O)NC1CCCCC1	0.3	-5	-4.4	10	-0.1%	13
COc1cc(Cn2cnnn2)ccc1O	0.9	12	-2.3	-1	0.1%	5
COc1ccc(N2CCN(C(=O)CCN3C(=O)C4C5C=CC(C5)C4C3=O)CC2)cc1 (stereo unspecified)	1.4	.	-1.3	1	1.3%	2
Cc1cccc(OCCN2CCOCC2)c1C	0.1	6	-0.9	0	-0.2%	-2
O=C(CSc1nnc2ccc3ccccc3n12)Nc1ccccc1Cl	0.9	.	.	.	2.4%	29
FC(F)(F)c1nc2ncc(Cl)cc2[nH]1	-0.3	17	0.7	1	4.8%[38.3 µM]	-7
COc1cc(/C=C2\C(=O)ON=C2c2ccc(Cl)cc2)ccc1O	0.5	-1	-4.3	-4	1.5%	14
Brc1ccccc1C1=Nn2c(nnc2-c2ccco2)SC1	-1.0	-21	2.1	-24	-0.8%	-10
Cc1ccc(C(=O)Nc2cc([N+](=O)[O-])ccc2C)cc1	2.4	-10	-1.0	6	2.4%	-11
CCc1ccc(C(=O)COC(=O)CNC(=O)c2cccs2)cc1	0.1	0	0.2	8	1.5%	11
COc1ccc(Br)cc1S(=O)(=O)Nc1cc(-c2cn3ccccc3n2)ccc1C	-0.2	.	.	.	4.3%	15

Reprinted at random: two records from the list
SMILES	TRPML1 ag	CtBP-E1A inh	D2 ag	Six1-Eya2 inh	PINK1 expr mod	TRPML1 blocker
FC(F)(F)c1nc2ncc(Cl)cc2[nH]1	-0.3	17	0.7	1	4.8%[38.3 µM]	-7
O=C(CSc1nnc2ccc3ccccc3n12)Nc1ccccc1Cl	0.9	.	.	.	2.4%	29

Continued:
SMILES	TRPML1 ag	CtBP-E1A inh	D2 ag	Six1-Eya2 inh	PINK1 expr mod	TRPML1 blocker
Cc1ccc(C(C)(c2ccc(N)cc2)c2ccc(N)cc2)cc1	1.6	-19	-1.4	8	-1.1%	63
O=C(NC(c1ccccc1)c1ccsc1)C1CCN(CCOc2ccc(Cl)cc2Cl)CC1 (stereo unspecified)	0.2	-9	-1.5	-3	0.6%	.
O=C(Nc1ccc2sccc2c1)c1cccc(N2C(=O)CCC2=O)c1	-1.3	5	-2.2	-5	0.1%	0
O=C(COC(=O)c1cccc(Oc2ccccc2)c1)NCc1ccco1	0.2	4	-1.9	-3	1.9%	-1
CCCn1c(SCC#N)nc2c(c1=O)C1(CCCC1)Cc1ccccc1-2	-1.0	0	-3.5	1	2.8%	15
Cc1cccc(OCC(=O)N/N=C2/SCC(=O)N2Cc2ccco2)c1	0.9	.	8.1	-2	0.7%	-7
Cc1cc(/C=C2/NC(=O)NC2=O)c(C)n1-c1sc2c(c1C#N)CCCC2	1.8	-11	-2.7	-11	15%	-4
O=C(COc1ccc(Cl)c(Cl)c1)NC1CCS(=O)(=O)C1 (stereo unspecified)	1.3	6	4.4	0	0.0%	-26
Cc1ccc(NC(=O)Cn2nnc(C(=O)NCc3cccs3)c2N)c(C)c1	0.5	-3	-5.5	-1	0.8%	-9
CCCCCOC(=O)NCC(O)c1ccccc1 (stereo unspecified)	-0.5	0	-0.8	5	-0.9%	0
O=C(Cc1ccc(Cl)cc1Cl)NC1CCCCCC1	2.8	-13	-4.6	19	11%	-3
COc1cccc2cc(C(C)N(CCCN3CCOCC3)C(=S)Nc3cc(C)ccc3C)oc12 (stereo unspecified)	0.0	-12	-1.9	-14	-2.7%	1
Cc1nc(NC(=O)C2CCCCC2)sc1C	0.2	-1	-0.2	-1	0.9%	16
COc1cc2c(cc1CNC[C@H]1O[C@@H](n3cnc4c(N)ncnc43)[C@H](O)[C@@H]1O)OCO2	-0.2	4	-0.4	-1	0.4%	-5
O=C(CN1C(=O)NC2(CCc3ccccc32)C1=O)Nc1ccc(N2CCOCC2)cc1 (stereo unspecified)	0.2	-11	-2.8	0	-2.7%	12
COc1cccc(CC(=O)OCC(=O)NC(Cc2ccccc2)C(C)=O)c1 (stereo unspecified)	-0.9	2	-5.3	0	3.9%	11
COc1ccc2sc(-c3ccc(S(C)(=O)=O)cc3)c(C#CCO)c2c1	1.4	?	3.4	-4	-0.2%	0
CCCC(=O)Nc1nnc(SCC(=O)NCc2cccs2)s1	-0.3	5	1.0	6	0.6%	-2
CS(=O)(=O)N(CC(=O)NCc1ccccc1)c1ccc(Cl)cc1	0.9	5	-3.6	5	0.2%	10
COc1cccc(OCc2cc(/C=N/Nc3ccc(C(=O)O)cc3)ccc2OC)c1	0.8	-4	1.5	-14	8.9%	26
COc1cccc(OC)c1C(=O)Nc1ccc(S(=O)(=O)Nc2nccc(C)n2)cc1	0.6	.	.	.	1.5%	-5
COc1ccc2cc(C(=O)C3CCCN(C(=O)CCc4ccccn4)C3)ccc2c1 (stereo unspecified)	0.2	-8	-3.3	-15	-1.0%	-2
CC(=O)c1ccc(N(CC(=O)NC2CCCCC2)C(=O)c2csnn2)cc1	1.1	-16	-7.2	-11	-1.2%	7
COc1ccc(-c2cc(-c3cccs3)c(C#N)c(SCC(=O)NCc3ccccc3OC)n2)cc1	2.3	4	-1.4	5	-1.0%	8
Cc1cccc(-n2ncc3c(Nc4ccc(Oc5ccc(Cl)cc5)cc4)ncnc32)c1	0.8	.	.	.	?	55
COc1ccc(Nc2oc(/C=C/c3ccc(F)cc3)nc2C#N)cc1	0.6	.	.	.	1.6%	34
CCOC(=O)C1(Cc2cccc(Cl)c2)CCCN(C(=O)c2cc(C(C)C)nn2C)C1 (stereo unspecified)	1.3	-8	-3.4	5	-1.2%	7
CC(C)c1ccc(S(=O)(=O)N2CCN(C(=O)n3ccnc3)CC2)cc1	0.1	-4	3.5	2	-1.1%	14
CC(C)(Oc1ccc(Cl)cc1)C(=O)NCc1n[nH]c(=O)c2ccccc12	0.4	1	-0.8	-10	6.1%	23
CCCCn1c(=NC(=O)c2c(-c3c(F)cccc3Cl)noc2C)c(C(=O)OCC)cc2c(=O)n3ccccc3nc21	-0.3	.	.	.	3.0%	-3

Next section, overlapping the part above by 3 compounds.
SMILES	TRPML1 ag	CtBP-E1A inh	D2 ag	Six1-Eya2 inh	PINK1 expr mod	TRPML1 blocker
CC(C)c1ccc(S(=O)(=O)N2CCN(C(=O)n3ccnc3)CC2)cc1	0.1	-4	3.5	2	-1.1%	14
CC(C)(Oc1ccc(Cl)cc1)C(=O)NCc1n[nH]c(=O)c2ccccc12	0.4	1	-0.8	-10	6.1%	23
CCCCn1c(=NC(=O)c2c(-c3c(F)cccc3Cl)noc2C)c(C(=O)OCC)cc2c(=O)n3ccccc3nc21	-0.3	.	.	.	3.0%	-3
COc1cc(OC)c(C#N)c(S(=O)Cc2ccccc2)c1 (stereo unspecified)	-0.1	9	-3.1	-2	-0.6%	0
Cc1ccccc1Nc1nc(N)nc(COC(=O)c2ccc([N+](=O)[O-])o2)n1	-0.2	-11	?	0	-1.5%	11
Cc1ccc(C)c(/C=N/n2cc(-c3ccccc3)[nH]c2=S)c1	0.9	-18	-4.7	-17	3.8%	14
O=C1CCc2cc(S(=O)(=O)NC(Cc3ccccc3)C(=O)NCC3CCCO3)ccc2N1 (stereo unspecified)	0.0	2	-5.7	3	2.8%	7
O=C(Nc1ccccc1)c1ccc(NCCN2C(=O)CCC2=O)c([N+](=O)[O-])c1	0.6	22	-5.3	0	0.2%	-6
Cc1cccc(NC(=O)Cn2c(=O)n(Cc3ccccc3)c(=O)c3sc4ccccc4c32)c1	-1.0	.	.	.	-0.1%	-2
CCOc1ccc(CCNC(=O)c2ccc(-c3nc(CSc4ccc(C)cc4)c(C)o3)cc2)cc1	0.4	.	.	.	0.6%	6
CCOC(=O)c1cc(C(C)(C)C)n(CCCN2CCOCC2)c1C	-0.7	.	-3.3	-3	1.5%	-10
CC(NC(=O)c1ccco1)C(c1cccs1)N1CCN(c2ccc(F)cc2)CC1 (stereo unspecified)	0.2	1	-0.6	-4	.	3
Cc1ccc(S(=O)(=O)N2CCN(C(=O)COC(=O)c3cccc(Cl)c3)CC2)c(C)c1	2.1	5	-1.3	-6	-0.1%	-4
COc1cccc2cc(/C(C)=N/Nc3nc(-c4cc(C)ccc4C)cs3)c(=O)oc12	-0.3	0	-4.5	-3	-0.1%	1
CN(C)c1ccc(NC(=O)Nc2cccc(Cl)c2)cc1	-0.6	?	-1.1	?	7.8%[38.3 µM]	3
COc1cc(OC)cc(-c2nc(=S)n3ccsc3n2)c1	-0.2	23	1.5	2	1.6%	-25
NS(=O)(=O)c1ccc(S(=O)(=O)c2ccccc2)nc1	-0.4	12	-2.3	8	0.3%	11
Cn1c(=O)n(C)c2cc(NC(=O)c3ccccc3[N+](=O)[O-])c(Br)cc21	-0.8	1	0.1	1	0.6%	12
CCOc1ccc(CNC(=O)c2ccc(NC(=O)C3=CSCCO3)cc2)cc1	0.0	3	-1.4	-3	7.6%	-1
CCn1c(C)c(C)c2cc(C(=O)NCCCN3CCN(C)CC3)ccc21	-0.4	-19	-1.4	-13	-0.6%	-2
O=C(CC1C(=O)NCCN1CC(c1ccccc1)c1ccccc1)NCC1CCOCC1 (stereo unspecified)	-0.1	3	-6.7	-3	-0.9%	10
O=c1ccnc(Nc2ccc([N+](=O)[O-])cc2)[nH]1	1.0	1	?	3	2.1%	-11
CC(C)NC(=O)NC(=O)COC(=O)c1ccc(F)cc1F	-0.8	-25	-2.9	3	-1.4%	16
CCN(CC)C(=O)CN1C(=O)C2CC=C(Cl)CC2C1=O (stereo unspecified)	0.0	-10	-5.0	4	2.9%	14
COC(=O)CN(c1cc(OC)ccc1OC)S(=O)(=O)c1ccc(OC)c(OC)c1	1.7	0	-4.4	-2	-2.5%	13
CN(CCC#N)C(=O)COC(=O)/C=C/c1ccc2c(c1)OCO2	0.8	3	1.4	9	-3.2%	-6
O=S(=O)(c1ccc(-c2ccon2)s1)N1CCN(c2ccccn2)CC1	-0.1	0	1.4	-1	5.4%	-1
